Calb FLC = C. albicans growth modulation with fluconazole; C. albicans CaCi-2 (fluconazole-resistant clinical isolate) + fluconazole, Alamar Blue growth, 48 h; growth inhibition, % (no concentration beside the values); 0.57% of 300,000 active; AID 1979;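 active means most replicates above 75%; inconclusive means exactly half above 75%; inactive means most below 75%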;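 further: all wells also contain fluconazole at 8 µg/ml as a sub-toxic cotreatment; 0% = median of DMSO wells and 100% = median of geldanamycin control wells; wells of about 8 µL received 7.5 nL stock; the first replicate is given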
B2AR ag = activates human beta-2 adrenergic receptor causing internalization. P07550. Am2.2-beta2AR cells, FAP receptor internalization, flow cytometry; reference of the scale not given here. response, % (test concentration not listed). 0.43% of 340,000 active;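 active means response above a set limit, near 3 SD of response in nonfluorescent compounds, cut at about 42% in these data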;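 further: stock transfer was 100 nL into about 11 µL; a reference agonist was the positive control; negative values mostly stem from fluorescent compounds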
Target sequence (P07550 whole entry, looked up): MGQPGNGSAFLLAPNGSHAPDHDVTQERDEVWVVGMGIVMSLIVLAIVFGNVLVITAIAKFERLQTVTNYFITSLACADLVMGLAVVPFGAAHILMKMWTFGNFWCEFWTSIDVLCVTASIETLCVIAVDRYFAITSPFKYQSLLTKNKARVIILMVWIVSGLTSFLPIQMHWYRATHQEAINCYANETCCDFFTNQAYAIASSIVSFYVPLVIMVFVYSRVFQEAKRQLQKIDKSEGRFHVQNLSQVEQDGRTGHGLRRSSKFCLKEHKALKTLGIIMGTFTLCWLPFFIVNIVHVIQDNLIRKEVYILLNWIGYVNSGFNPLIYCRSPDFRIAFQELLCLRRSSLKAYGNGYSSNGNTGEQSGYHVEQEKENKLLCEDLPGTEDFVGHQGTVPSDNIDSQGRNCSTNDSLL
LANA-H2A inh = blocks KSHV LANA binding to histone H2A/H2B; AID 2629; inhibition, % (no concentration beside the values); cell-free LANA-H2A/H2B peptide, fluorescence polarization; 0.6% of 320,000 active; in the data active means inhibition mostly above about 10%, no sharp cut-off; inactive means mostly below about 6.7%;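 further: stock transfer was 7.5 nL into about 10 µL; 0% = median of vehicle wells and 100% = median of positive control wells; one replicate is shown; the record names a cut of 25% in any replicate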
ALR inh = inhibitors of human sulfhydryl oxidase ALR; P55789; purified ALR, DTT oxidation, H2O2 HRP-luminol luminescence; inhibition, % (no concentration beside the values); 3.8% of 290,000 active;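 active means mean and each replicate at 75% or more; inconclusive means only one of the two met; inactive means neither met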;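 further: stock transfer was 7.5 nL into about 7.5 µL; 0% = neutral wells and 100% = wells with inactivated enzyme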
Target sequence (P55789 whole entry, looked up): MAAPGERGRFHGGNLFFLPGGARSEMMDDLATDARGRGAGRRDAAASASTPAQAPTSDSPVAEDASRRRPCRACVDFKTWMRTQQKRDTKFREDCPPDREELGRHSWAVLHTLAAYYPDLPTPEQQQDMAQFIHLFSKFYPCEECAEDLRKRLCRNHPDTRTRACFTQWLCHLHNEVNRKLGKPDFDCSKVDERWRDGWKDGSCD
Beta apoptosis = blocks beta cell apoptosis. INS-1E cytokine-induced death, ATP luminescence, 48 h; percent of positive-control rescue, neutral wells zero. protection from apoptosis, % (test concentration not listed). 0.8% of 300,000 active;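 active means all replicates at 75% or more, or half of them and the mean; inconclusive means half reach 75% but not the mean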;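 further: 0% = cytokine-treated negative control wells and 100% = positive control rescue; higher means more ATP so stronger rescue from cytokine killing; wells of about 40 µL received 100 nL stock; the first replicate is given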
T cruzi inh = blocks replication of Trypanosoma cruzi; 1.4% of 300,000 active; T. cruzi beta-gal in NIH3T3, luminescence, 90 h; inhibition, % (test concentration not listed);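 active means mean inhibition across valid replicates above about 55%, limit read from the data; inconclusive means mean below that limit but half or more replicates reach it; inactive means mean below it, under half of replicates reach it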;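 further: signal also drops with host cell toxicity which is not excluded here; 0% = plate median of DMSO wells and 100% = zero luminescence signal; higher percent means less beta-gal luminescence so fewer parasites; stock transfer was 50 nL into about 50 µL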
Ecoli rRNA inh = inhibits bacterial ribosomal RNA function over humanized ribosomes | E. coli WT GFP vs humanized-ribosome RFP mutants, fluorescence, 24 h; hits give low values; DMSO median 0, no signal -100 | GFP signal change (wild-type ribosome), % (no concentration beside the values) | 1.6% of 350,000 active;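 active means significant combined selectivity score with lowered wild-type GFP, culture density cut under 30%, mutant RFP and density less affected; inactive means any of these conditions unmet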; further: one replicate is shown; some compounds called inactive have numbers as strong as hits
Bfl-1 A1 inh = inhibitors of the anti-apoptotic protein A1, read as caspase activation | AID 2462 | 0.066% of 330,000 active | caspase activation, % (concentration not given with the values) | MEF A1-2A-BIM cells, Caspase-Glo 3/7 luminescence, 3 h; percent of clofoctol response, vehicle zero;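 active means over half of replicate activation scores above 10%, or exactly half above 10 with the replicate mean above 10; inconclusive means replicate mean below 10 yet half the replicates above 10; inactive means over half of replicates below 10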;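 further: wells of about 30 µL received 50 nL stock; many hits fall short of the cut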
Ecoli rRNA inh OD600 = also measured in Ecoli rRNA inh; calls as there; OD600 change, %; measured here: OD600 growth;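 optical density of the mix in the first replicate; 0 = DMSO median and -100 = no signal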
Ecoli rRNA inh RFP = second read-out of Ecoli rRNA inh, no call of its own (marks repeat the call); RFP signal change, %; measured here: RFP humanized mutant strains;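 first replicate; 0 = DMSO median and -100 = no signal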
Numbers without * were called inactive; ? = inconclusive; . = no result given. This is a subset; the hit share may differ from the screen's.

SMILES | Calb FLC | B2AR ag | LANA-H2A inh | ALR inh | Beta apoptosis | T cruzi inh | Ecoli rRNA inh | Ecoli rRNA inh OD600 | Ecoli rRNA inh RFP | Bfl-1 A1 inh
O=C(OCC(=O)N1CCN(c2ccccc2)CC1)c1ccc(Cl)nc1 | 8 | -8 | -8.3 | 97* | -2 | -6 | 1 | 2 | 0.1 | 0.1
CNc1ccc(C(=O)N2CCN(S(=O)(=O)c3ccc4c(c3)OCCCO4)CC2)cc1[N+](=O)[O-] | -2 | 9 | 1.8 | 3 | 2 | -2 | -5 | -6 | 0.2 | 1.0
O=C(CCc1ccc(O)cc1)NNC(=S)NCCc1ccccc1 | 4 | 0 | 2.3 | . | 1 | 4 | -15 | -13 | -0.5 | -0.1
CCOc1ccc(N2C(=O)CS/C2=C(\C(Cl)=C(Cl)Cl)[N+](=O)[O-])cc1 | 12 | 7 | 5.6 | 13 | 3 | -4 | . | . | . | 0.4
COc1cccc(/C=C/C(=O)OCC(=O)NC(=O)NC2CCCCC2)c1 | -12 | -5 | 1.2 | . | -8 | -7 | -6 | 1 | 3.0 | 0.3
O=C(N=C1SC2CS(=O)(=O)CC2N1CCc1ccccc1)C1CC1 (stereo not drawn) | -2 | 3 | 5.9 | -3 | -2 | 2 | 20 | 13 | -1.4 | -2.2
O=C(COC(=O)CCNS(=O)(=O)c1ccccc1)NC1CC1 | . | -1 | -5.0 | . | 0 | . | 11 | 8 | 0.8 | 0.3
COc1ccc(NC(=O)C2CCN(C(=O)c3ccco3)CC2)c(OC)c1 | -1 | 4 | -6.9 | -7 | 4 | -8 | -4 | -14 | 5.3 | 0.8
Cc1cc(C)nc(-n2nc(C)cc2NC(=O)C(C)C)n1 | 4 | 2 | 0.8 | -3 | -9 | 4 | -3 | 3 | -9.6 | 0.3
CN(C)c1ccc(/C=N/NC(=O)c2ccc3nc[nH]c3c2)cc1 | -1 | 5 | 5.1 | . | -5 | -2 | -8 | -16 | -5.2 | 0.4
Cc1nc(CNC(=O)c2cc(COc3ccc(F)cc3Cl)on2)cs1 | 10 | -1 | 5.1 | . | -12 | 6 | -33 | -35 | 23 | -0.7
CCn1c(CNc2nc(-c3ccccc3)cs2)nnc1SCC(=O)NCc1ccccc1 | 17 | -3 | 5.6 | . | -8 | 12 | . | . | . | 1.0
CN(C)S(=O)(=O)N1CCN(c2ccc([N+](=O)[O-])c(NC3CC3)c2)CC1 | 31 | -1 | 0.1 | -4 | 2 | -6 | -10 | -23 | -5.7 | 1.7
CC1=C(C(=O)OCc2ccccc2)C(c2ccc(Cl)cc2)NC(=O)N1CCCC(=O)O (stereo not drawn) | 3 | . | -1.8 | 0 | 1 | -13 | -4 | 4 | -5.2 | -0.2
COc1ccc(/C=N/NC(=O)c2ccn[nH]2)cc1COc1ccc(F)cc1 | 14 | 4 | -1.1 | -6 | . | -2 | . | . | . | -0.3
COc1ccc(F)cc1COc1nc(C)nc2ccccc12 | 11 | -2 | 7.0 | -3 | -6 | -5 | -6 | -3 | -2.5 | -1.0
Cc1nc2ccc(NC(=O)N(C)c3ccccc3)cc2s1 | 37 | -9 | 1.3 | -16 | -2 | -24 | 17 | 18 | -0.2 | -0.9
CCOc1ccc(C(=S)NC2CCCCC2)cc1OCC | -6 | -7 | -2.8 | 33 | 2 | 14 | 1 | 7 | -1.4 | -0.2
O=C(Cc1ccc(S(=O)(=O)N2CCOCC2)s1)Nc1ccc2c(c1)CCC2 | 0 | -7 | -0.4 | 0 | 1 | 7 | . | . | . | 0.2
CCC(C)NC(=S)Nc1ccc(C(=O)OC)cc1 (stereo not drawn) | -22 | 1 | -0.3 | -9 | -2 | 2 | 2 | -14 | 0.5 | 0.6
CC(C)Cc1cc(C(=O)O)n[nH]1 | -20 | 1 | -7.4 | -18 | -7 | -4 | . | . | . | -0.3
COc1ccc(S(=O)(=O)NCC2CCCN(Cc3ccc(OC)cc3F)C2)cc1 (stereo not drawn) | -4 | 0 | 3.5 | -4 | -1 | 1 | 15 | 9 | 3.2 | 0.6
Cc1ccc(-n2nc(C)c(NC(=O)CCl)c2C)cc1C | 0 | 1 | -2.2 | 8 | 3 | -22 | . | . | . | 1.2
CCOC(=O)CC1CCCCN1C(=O)c1cc(COc2cccc3cnccc23)on1 (stereo not drawn) | -2 | -3 | 6.0 | -13 | 96* | -25 | -25 | -22 | -2.2 | -2.1
COc1ccc(NC(=O)C2COc3ccccc3O2)cc1S(=O)(=O)N1CCOCC1 (stereo not drawn) | . | 0 | -5.4 | -1 | -5 | . | -3 | -4 | 1.7 | 0.8
COc1ccc(F)cc1S(=O)(=O)NCC(=O)NCc1cc(=O)n(C)c(=O)n1C | . | 1 | -7.3 | -4 | -1 | -16 | 16 | 18 | 2.5 | -0.4
Cc1ccc(C(=O)N2CCC3(CC2)Oc2ccc(F)cc2C(=O)C32CC(c3cccnc3)=NO2)s1 (stereo not drawn) | 36 | -7 | -1.7 | 0 | -7 | -9 | -4 | -1 | 6.4 | 1.0
CC(=O)c1cc(NC(=O)c2ccc(C)cc2)c(=O)oc1/C=C/N(C)C | -2 | -11 | 8.2 | 22 | 0 | 3 | . | . | . | -1.6
CC(C)OC(=O)CSc1nnc(-c2ccc(O)cc2)n1Cc1ccccc1 | 10 | 7 | -1.9 | 6 | 3 | 6 | . | . | . | 0.9
CCC(C)NC(=O)c1ccccc1NC(=O)COc1ccc(OC)cc1 (stereo not drawn) | -1 | 0 | . | . | . | -5 | -1 | 0 | -3.7 | .

Looked up by compound from above (two):
SMILES | Calb FLC | B2AR ag | LANA-H2A inh | ALR inh | Beta apoptosis | T cruzi inh | Ecoli rRNA inh | Ecoli rRNA inh OD600 | Ecoli rRNA inh RFP | Bfl-1 A1 inh
O=C(CCc1ccc(O)cc1)NNC(=S)NCCc1ccccc1 | 4 | 0 | 2.3 | . | 1 | 4 | -15 | -13 | -0.5 | -0.1
CCOc1ccc(C(=S)NC2CCCCC2)cc1OCC | -6 | -7 | -2.8 | 33 | 2 | 14 | 1 | 7 | -1.4 | -0.2

Quoted from the listing:
Under B2AR ag, `Cc1nc2ccc(NC(=O)N(C)c3ccccc3)cc2s1` is entered as -9
Under Beta apoptosis, `COc1ccc(NC(=O)C2COc3ccccc3O2)cc1S(=O)(=O)N1CCOCC1` (stereo not drawn) is entered as -5
Under T cruzi inh, `COc1ccc(F)cc1COc1nc(C)nc2ccccc12` is entered as -5
Under Bfl-1 A1 inh, `Cc1ccc(-n2nc(C)c(NC(=O)CCl)c2C)cc1C` is entered as 1.2
Under B2AR ag, `CCC(C)NC(=O)c1ccccc1NC(=O)COc1ccc(OC)cc1` (stereo not drawn) is entered as 0
Under Ecoli rRNA inh RFP, `CCOc1ccc(C(=S)NC2CCCCC2)cc1OCC` is entered as -1.4
Under ALR inh, `COc1ccc(S(=O)(=O)NCC2CCCN(Cc3ccc(OC)cc3F)C2)cc1` (stereo not drawn) is entered as -4

Continued:
SMILES | Calb FLC | B2AR ag | LANA-H2A inh | ALR inh | Beta apoptosis | T cruzi inh | Ecoli rRNA inh | Ecoli rRNA inh OD600 | Ecoli rRNA inh RFP | Bfl-1 A1 inh
COc1ccccc1CC(=O)NNC(=O)c1cccs1 | ? | 9 | -1.8 | -10 | -6 | -15 | 15 | 20 | 0.6 | -0.6
COc1cccc(CNC(=O)C23CN(Cc4ccccc4)CC2C(c2ccc([N+](=O)[O-])cc2)=NO3)c1 (stereo not drawn) | 15 | 0 | 0.7 | 0 | 10 | 10 | 4 | 6 | -0.5 | -0.4
COc1ccc2[nH]c(=O)c(CN(Cc3cccnc3)S(=O)(=O)c3ccccc3F)cc2c1 | -3 | 10 | 0.4 | -10 | 3 | -8 | -5 | -22 | 3.0 | 0.1
C=CCOc1ccc(C2N3CC4(C)CN2CC(CCC)(C3)C4=O)cc1 (stereo not drawn) | . | 5 | 3.6 | -1 | -7 | . | . | . | . | 0.5
O=C(NCCCn1ccnc1)c1ccccc1F | -8 | 3 | 2.8 | -3 | -5 | 7 | 11 | 9 | 0.7 | 1.9
CCC1=NC(c2ccc(OC)c(OC)c2)N(O)C1(C)C (stereo not drawn) | 40 | -1 | 0.1 | -3 | 1 | -1 | . | . | . | -0.2
O=C1CC(c2ccco2)Cc2nc(NCC3CCCO3)ncc21 (stereo not drawn) | 8 | 0 | 0.5 | -33 | -11 | 0 | . | . | . | -0.4
O=c1cc(/C=C/c2cccs2)[nH]c2ccccc12 | 9 | -11 | 8.0 | 37 | 13 | -17 | -16 | -28 | -18 | 1.5
CC(C)N(CCNC(=O)c1ccc(CS(=O)(=O)c2c(Cl)cccc2Cl)o1)Cc1ccccc1 | -7 | -1 | -3.5 | -9 | 2 | 26 | 4 | 1 | 2.9 | 0.3
COc1ccc(C2c3[nH]c4ccccc4c3C[C@H]3C(=O)N(C4CCN(Cc5ccccc5)CC4)CC(=O)N23)c(OC)c1 (stereo partly drawn) | 16 | 11 | 0.2 | 5 | 15 | 25 | -9 | -20 | 38 | -0.3
COc1ccc(C(=O)N/N=C/c2ccc(N3CCOCC3)s2)cc1OC | . | 2 | . | 93* | -4 | . | -16* | -9.8* | 6.7* | -0.6
O=C(c1c(F)cccc1F)N1CCC(n2nnc3cc(C(F)(F)F)ccc32)CC1 | -5 | -6 | 5.5 | -6 | -3 | 4 | -1 | 11 | -4.4 | 1.0
Cc1c(C(=O)O)sc2nc(CSc3nnc(-c4ccc(F)cc4)n3C)[nH]c(=O)c12 | 3 | -2 | -143 | -2 | -7 | -3 | 4 | -1 | -1.5 | -0.5
CN(CC(=O)c1c(N)n(C)c(=O)n(C)c1=O)c1ccccc1 | 7 | 5 | 3.7 | 11 | -2 | -10 | -10 | 11 | -5.9 | 0.8
Cc1ccc(NC(=O)CSc2ccc(S(=O)(=O)N3CCCC3)cn2)cc1F | . | 1 | 1.4 | -2 | 9 | . | 4 | 20 | 3.3 | 1.0
Cc1nn(C)cc1C1C(C#N)=C(N)N(c2cccnc2)C2=C1C(=O)CCC2 (stereo not drawn) | -4 | -1 | -2.5 | 8 | 0 | -10 | 7 | 2 | 3.2 | 0.1
COc1ccc2c(c1)CCc1c(C(=O)NCCN3CCOCC3)noc1-2 | -9 | -9 | 0.5 | -22 | -10 | 12 | . | . | . | 1.2
CCN(Cc1ccccc1)c1ccc(/C=N/N=C(N)N)cc1 | 60 | 63* | -0.8 | 99* | . | ? | -58 | -80 | -30 | -0.3
CCn1c(SCC(=O)c2ccc3c(c2)OCCO3)nnc1C(C)C | . | -3 | 3.0 | 23 | 2 | . | . | . | . | -2.1
CC(C)c1nnc(NC(=O)C2CCCO2)s1 (stereo not drawn) | -4 | -3 | -3.7 | -5 | -4 | -15 | 14 | 9 | 1.2 | -0.1

Assay outcomes as filed in PubChem.
